RGS16-Gao – modulators of RGS16 binding to Galphao, primary screen, biochemical, human proteins, multiplexed bead flow cytometry; Regulator of G-protein signaling 16 (Homo sapiens) + Guanine nucleotide-binding protein …; bead-based flow cytometry RGS16-Galphao binding, fluorescence; actives lie on both sides; binding response (% of control), % at 10 µM; 220,000 compounds, 0.38% hits; AID 1441, 2008;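 active means below 25% or above 175%, edge rows of some plates excepted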;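 further: Galphao activated by GDP with aluminum fluoride before binding; 100% = wells without compound and 0% = beads without RGS; some results beyond the cut were filed as inactive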
Target sequence (O15492 whole entry, looked up): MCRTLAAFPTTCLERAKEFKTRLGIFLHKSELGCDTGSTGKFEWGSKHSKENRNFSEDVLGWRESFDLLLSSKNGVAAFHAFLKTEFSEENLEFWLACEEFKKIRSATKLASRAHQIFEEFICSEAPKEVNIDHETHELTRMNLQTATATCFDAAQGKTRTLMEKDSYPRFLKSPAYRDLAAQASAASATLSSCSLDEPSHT
Target sequence (P09471 whole entry, looked up): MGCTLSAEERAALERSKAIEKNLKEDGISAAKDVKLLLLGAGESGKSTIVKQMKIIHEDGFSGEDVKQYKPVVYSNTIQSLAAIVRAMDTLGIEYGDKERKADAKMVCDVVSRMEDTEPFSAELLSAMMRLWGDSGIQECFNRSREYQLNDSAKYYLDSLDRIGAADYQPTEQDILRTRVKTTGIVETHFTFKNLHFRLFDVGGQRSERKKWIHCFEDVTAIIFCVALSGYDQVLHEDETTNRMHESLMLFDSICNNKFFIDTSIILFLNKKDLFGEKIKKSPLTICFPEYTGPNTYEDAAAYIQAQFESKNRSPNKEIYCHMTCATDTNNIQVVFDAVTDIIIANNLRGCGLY
Insulin prom inh – inhibitors of insulin promoter-driven GFP, primary screen, imaging, TRM-6 cells (human fetal islet line), eGFP reporter, cell count; reporter expression induced with tamoxifen; inhibition, % at 2 µM; 130,000 compounds, 0.9% hits; AID 1273, 2008;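 active means inhibition above the mean plus 3 SD, with well images judged a real hit on visual review, cut at about 60% in these data, passing the limit was not always enough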
GALR2 ag – GALR2 receptor agonists, primary screen, cell-based | Galanin receptor type 2 (Homo sapiens), O43603 | AID 803, 2007 | 140,000 compounds, 0.48% hits | GALR2-expressing cells, agonist activation read-out | activation, %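 (tested at 5 µM)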;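 active means above mean plus 3 SD of all compounds, about 5% in these data, not always enough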;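 further: 0% = vehicle buffer wells and 100% = reference agonist at full effect; tested in CHO reporter cells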
Target sequence (O43603 whole entry, looked up): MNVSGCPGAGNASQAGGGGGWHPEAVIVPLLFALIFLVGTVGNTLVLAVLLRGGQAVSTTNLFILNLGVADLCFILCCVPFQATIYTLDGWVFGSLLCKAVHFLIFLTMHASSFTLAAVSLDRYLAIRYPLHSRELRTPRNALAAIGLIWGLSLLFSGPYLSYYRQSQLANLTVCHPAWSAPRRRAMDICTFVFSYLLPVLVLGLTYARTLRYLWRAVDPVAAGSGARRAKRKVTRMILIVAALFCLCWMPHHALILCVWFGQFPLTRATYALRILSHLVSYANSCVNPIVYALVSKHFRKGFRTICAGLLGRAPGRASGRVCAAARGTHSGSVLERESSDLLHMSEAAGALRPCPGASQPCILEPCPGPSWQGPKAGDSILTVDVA
HSV replic up – enhancers of HSV replication in host cells, fold increase, host cell viability; 220,000 compounds, 0.005% hits; HSV replication augmentation in cells; AID 1956, 2009; maximum fold increase;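 active means peak rise of 1.5-fold or more in the series; tested in PC3 cells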;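 further: first round at 10 µM; read as green reporter fluorescence; hits show the peak of a series up to 25 µM; 1 = signal of infected wells without compound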
PKD1 kinase inh – inhibitors of human PKD1 kinase, biochemical, fluorescence polarization. Serine/threonine-protein kinase D1 (Homo sapiens), Q15139. PKD1 kinase fluorescence polarization assay. inhibition, %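 (about 10 µM by stock and volumes)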. 200,000 compounds, 0.056% hits. AID 797, 2007;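 active means inhibition of 50% or more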;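 further: controls were vehicle for no effect and a reference inhibitor for full effect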
Insulin prom inh cell count – second read-out of Insulin prom inh, no call of its own (marks repeat the call); normalized cell count, %; measured here: cell count, toxicity; reference of the scale not given here;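 cells exposed to compound for 48 h; stained nuclei by imaging scaled within each plate; lower means fewer cells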
HSV replic up primary fold – second read-out of HSV replic up, no call of its own (marks repeat the call); fold increase; compound at 10 µM; measured here: primary screen fold increase 10 uM; tested in PC3 cells;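 GFP signal in the first replicate; 1 = infected wells without compound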
The depositor's hits bear a star; i = inactive; / = not tested or not shown.

#	mol	RGS16-Gao	Insulin prom inh	Insulin prom inh cell count	GALR2 ag	HSV replic up	HSV replic up primary fold	PKD1 kinase inh
1	COc1cc(Cl)c(C)cc1NC(=O)CNC(=O)Cn1cnc2ccccc2c1=O	97	11	120	-0.7	i	0.91	0
2	CCn1c(SCc2nc(-c3cccs3)no2)nnc1-c1c[nH]c2ccccc12	102	-29	236	0.1	i	0.94	-6
3	Nc1ccc(-c2nc3ccccc3[nH]2)cc1	95	/	/	-1.0	i	0.95	-4
4	Cc1nn(-c2ccccc2)c2sc(C(=O)OCn3nnc4ccccc4c3=O)cc12	104	6	115	-0.7	i	0.95	-10
5	Brc1cccc(-c2nnc(SCc3nc4ccccc4[nH]3)o2)c1	114	/	/	-3.6	/	/	-2
6	CCOC(=O)C1C(=O)C=C(c2ccc(OC)cc2)CC1c1ccco1 (centres undefined)	98	0	126	-2.0	i	0.81	-1
7	C=CCNC(=S)NNC(=O)C(CC(C)C)CC(C)O (centres undefined)	105	/	/	/	i	0.94	/
8	Cc1ccc(/C=C2\SC(N)=NC2=O)s1	73	0	90	-0.5	i	1	-4
9	CCOC(=O)/C(=C\c1ccc(OC(F)F)cc1)C1=Nn2c(nnc2-c2ccc(Cl)cc2)SC1	89	48	103	-3.1	i	0.52	-3
10	COc1ccc(N=CC2=C(O)CC(C)(C)CC2=O)cc1OC	102	/	/	/	i	1	/
11	c1ccc(-c2noc(CC3CCCCC3)n2)cc1	92	60	92	/	i	1	6
12	O=C(COC(=O)C1(c2ccc(F)cc2)CCCC1)NC1CC1	99	14	101	-2.4	i	1.1	-4
13	COC(=O)[C@@H]1C[C@H]2CC[C@H](O)C[C@H]2N1Cc1ccc(C(C)(C)C)cc1	102	/	/	/	i	0.86	/
14	CCc1cc2c(N[C@@H](Cc3c[nH]c4ccccc34)C(=O)O)ncnc2s1	105	-86	78	-0.4	i	1.1	11
15	CCn1c(=O)cc(SCC(=O)Nc2ccc3c(c2)OCCO3)c2ccccc21	111	/	/	-0.5	i	1.2	-8

Next section:
#	mol	RGS16-Gao	Insulin prom inh	Insulin prom inh cell count	GALR2 ag	HSV replic up	HSV replic up primary fold	PKD1 kinase inh
16	CCN(CC)C(=O)CSc1nnc(COc2ccccc2)n1N	103	/	/	/	i	1	-6
17	CCOc1ccc(C(=O)N/N=C/c2ccc(-c3ccc(S(=O)(=O)Nc4ncccn4)cc3)o2)cc1	98	-16	119	0.6	i	0.95	0
18	COc1ccc(NC(=O)C2CC(=O)n3c(nc4ccccc43)N2)cc1 (centres undefined)	103	/	/	/	i	1.1	/
19	O=c1[nH]c(NNC(=S)NCc2ccccc2)nc2c1C1(CCCCC1)Cc1ccccc1-2	90	11	82	-1.7	i	1	-14
20	Cc1ccc(S(=O)(=O)N2CCC(C(N)=O)CC2)c(C)c1C	106	-6	165	-3.2	i	0.9	-4
21	Nc1ccccc1-c1nnc(-c2ccc(-c3ccccc3)cc2)o1	98	-38	95	4.0	/	/	10
22	Cc1ccc(N2CC(C(=O)NCc3cccs3)CC2=O)cc1C (centres undefined)	105	-19	124	-2.2	i	0.81	0
23	C=C(Cl)COc1ccc2c(CCC)cc(=O)oc2c1	103	-293	100	-0.7	i	1.1	0
24	Cc1ccc(OCC(=O)c2cc(C)n(Cc3ccco3)c2C)c([N+](=O)[O-])n1	96	/	/	/	i	0.96	/
25	CCC1CCc2c(sc(NC(=O)CSc3nc(-c4ccco4)cc(C(F)(F)F)n3)c2C#N)C1 (centres undefined)	99	16	144	-0.8	i	0.93	-4
26	COc1ccccc1N1C(=O)CC(Sc2ccccc2N)C1=O (centres undefined)	111	/	/	/	i	0.93	/
27	CC(C)(C)Nc1nc2nonc2nc1NC(C)(C)C	106	/	/	-1.5	i	0.86	-8
28	Cc1nc2nc(CCc3ccccc3)nn2c(C)c1Cl	99	28	153	-2.0	i	0.81	-2
29	COC(=O)c1ccc(N2CCN(S(=O)(=O)c3c(C)cc(C)cc3C)CC2)c([N+](=O)[O-])c1	100	/	/	-1.7	/	/	-8
30	Cc1noc(C)c1S(=O)(=O)N1CCC2(CC1)OCCO2	97	0	85	-0.1	i	0.95	3

(next part)
#	mol	RGS16-Gao	Insulin prom inh	Insulin prom inh cell count	GALR2 ag	HSV replic up	HSV replic up primary fold	PKD1 kinase inh
31	CC1=NNC(=O)/C1=C\c1cn(-c2ccccc2)nc1-c1cccs1	88	-20	115	-0.9	i	0.46	-18
32	CCc1cccc(C)c1NC(=O)CO/N=C(\C)c1cc2ccccc2o1	102	-38	115	-0.8	i	1	-20
33	C/C(=C\c1ccccc1)CN1CCN(c2ccccc2F)CC1	104	19	89	-2.4	i	0.79	1
34	Cc1ccc(CON=C2CCN(c3ncc(C(F)(F)F)cc3Cl)CC2)cc1	110	13	80	-2.0	i	0.68	0
35	Cc1ccc(NC(=O)CN(C)CC(=O)Nc2ccc(N3CCOCC3)cc2)c([N+](=O)[O-])c1	111	-85	62	-1.3	i	0.91	6
36	Cc1ccc(C)c(NC(=O)CCC(=O)NNC(=O)c2cccs2)c1	103	-15	103	0.5	i	0.94	-13
37	CN1CCN(C(=O)c2ccc3c(=O)n(Cc4ccco4)c(=S)[nH]c3c2)CC1	138	-10	68	-0.4	i	1	0
38	CCN(CCNC(=O)c1cc(C)nn1-c1ccccc1)c1ccccc1	102	-20	129	-0.5	i	0.99	-7
39	Cc1cc(-c2csc(NC(=O)c3ccc(S(=O)(=O)N(C)C)cc3)n2)c(C)n1-c1ccccc1	112	3	111	-2.1	i	1.1	-3
40	CN1CCN(NC(=O)CN2C(=O)/C(=C/c3ccccc3F)SC2=S)CC1	96	-26	137	-0.7	i	1.1	-4
41	Brc1ccc(CSc2ccc3nnc(-c4ccccn4)n3n2)cc1	104	-49	110	/	i	0.9	-1
42	CN(CC(=O)Nc1ccc(C#N)cc1)Cc1ccc(Cl)cc1Cl	137	-22	102	0.2	i	0.99	-5
43	C=Cc1cccc(NC(=O)COc2ccccc2)c1	103	-83	107	-1.0	i	0.87	-13
44	CCOc1cc(CNCc2ccccn2)ccc1OCC(=O)NC(C)(C)C	103	/	/	0.2	i	1.1	0
45	CC(c1ccco1)N(Cc1ccco1)C(=O)Nc1ccccc1 (centres undefined)	97	0	213	-1.2	/	/	-1

New compounds follow
#	mol	RGS16-Gao	Insulin prom inh	Insulin prom inh cell count	GALR2 ag	HSV replic up	HSV replic up primary fold	PKD1 kinase inh
46	Cc1ccc2cccc(S(=O)(=O)N3CCN(c4ccccc4F)CC3)c2n1	102	/	/	-2.5	i	0.94	-8
47	COc1ccccc1CNC(=O)CCS(=O)(=O)c1ccc2c(c1)CCCN2C(C)=O	114	/	/	-2.0	i	1	-3
48	COc1cc(/C=N/NC(=O)CCNC(=O)c2ccccc2Cl)ccc1O	101	/	/	/	i	0.96	-5
49	COc1ccc(-c2cc3nc(C)cc(N4CC(C)CC(C)C4)n3n2)cc1 (centres undefined)	98	-27	137	-0.5	i	0.78	-16
50	CC(NC(=O)NC12CC3CC(CC(C3)C1)C2)C1CCCO1 (centres undefined)	102	-25	146	-2.4	i	0.71	-1
51	C/C(CC(=O)Nc1cccc(Cl)c1C)=N\NC(=O)C(=O)NCC(C)C	102	27	118	-0.2	i	1	-1
52	CSc1nnc(C)c(=O)n1COC(=O)COc1ccc2ccccc2c1	99	/	/	-0.1	i	1	-1
53	COc1nc(OCCNC(=O)Nc2ccccc2)nc(N(C)C)n1	86	3	83	-2.9	i	0.96	13
54	COc1ccc(C2CC(=O)C(C(c3ccc(O)cc3)C3C(=O)CC(c4ccc(OC)cc4)CC3=O)C(=O)C2)cc1 (centres undefined)	96	/	/	/	i	0.99	/
55	Cn1cc(/C=N/NC(=O)c2cc3cc(Br)ccc3o2)c2ccccc21	102	/	/	/	i	0.87	/
56	Cc1ccc(S(=O)(=O)CC(O)CN2CCCC2=O)cc1 (centres undefined)	155	24	118	-1.2	i	0.97	-8
57	O=c1c2ccccc2cnn1Cc1n[nH]c(=S)n1-c1ccccc1Cl	84	-29	68	0.2	i	1	-1
58	O=C(Cn1nnc(-c2ccccc2)n1)NCc1ccco1	13	/	/	-2.0	i	0.94	3
59	C=CCn1c(CNC(=O)c2ccco2)nnc1SCC(=O)Nc1cccc(Br)c1	107	-18	91	-1.4	i	0.94	-5
60	CN1CCN(CCOc2ccc(Cl)c(Cl)c2)CC1	135	30	70	-0.2	i	1	-10

Some of the entries above in another layout:
32: CCc1cccc(C)c1NC(=O)CO/N=C(\C)c1cc2ccccc2o1
  RGS16-Gao = 102; Insulin prom inh = -38; Insulin prom inh cell count = 115; GALR2 ag = -0.8; HSV replic up = i; HSV replic up primary fold = 1; PKD1 kinase inh = -20

33: C/C(=C\c1ccccc1)CN1CCN(c2ccccc2F)CC1
  RGS16-Gao = 104; Insulin prom inh = 19; Insulin prom inh cell count = 89; GALR2 ag = -2.4; HSV replic up = i; HSV replic up primary fold = 0.79; PKD1 kinase inh = 1

34: Cc1ccc(CON=C2CCN(c3ncc(C(F)(F)F)cc3Cl)CC2)cc1
  RGS16-Gao = 110; Insulin prom inh = 13; Insulin prom inh cell count = 80; GALR2 ag = -2.0; HSV replic up = i; HSV replic up primary fold = 0.68; PKD1 kinase inh = 0

35: Cc1ccc(NC(=O)CN(C)CC(=O)Nc2ccc(N3CCOCC3)cc2)c([N+](=O)[O-])c1
  RGS16-Gao = 111; Insulin prom inh = -85; Insulin prom inh cell count = 62; GALR2 ag = -1.3; HSV replic up = i; HSV replic up primary fold = 0.91; PKD1 kinase inh = 6

Further structures follow.
#	mol	RGS16-Gao	Insulin prom inh	Insulin prom inh cell count	GALR2 ag	HSV replic up	HSV replic up primary fold	PKD1 kinase inh
61	COc1ccc(OC(C)C(=O)Nc2ccc([N+](=O)[O-])cc2)cc1 (centres undefined)	103	/	/	/	i	1.1	8
62	Cc1nc2ccc(S(=O)(=O)NC(CC(C)C)C(=O)O)cc2s1 (centres undefined)	105	-30	110	-0.5	i	0.77	1
63	CCOC(=O)C=Nc1c(N)n(C)c(=O)n(C)c1=O	123	37	99	-0.4	i	0.98	-6
64	CCOC(=O)C(CCCCCOc1ccc([N+](=O)[O-])cc1)C(=O)OCC	101	/	/	-0.4	i	1	7
65	Cc1ccc(S(=O)(=O)N(C)c2c(C)ccc(S(=O)(=O)Nc3ccncc3)c2C)cc1	106	-69	49	-1.8	i	1.1	-10
66	Fc1cccc(CSc2ncnc3c2oc2ccccc23)c1	101	/	/	-1.8	i	0.65	6
67	O=c1cc(NCCCO)c2ccccc2o1	111	-11	99	-5.8	i	1.2	-2
68	O=C(N/N=C/c1ccc([N+](=O)[O-])cc1)c1cccs1	102	/	/	/	i	0.89	/
69	O=C(CSCc1ccc([N+](=O)[O-])cc1)Nc1cccc(C(=O)Nc2ccccc2C(=O)O)c1	97	-8	107	-1.9	i	0.76	-3
70	Cc1ccc(C(=O)C(NC(=O)c2ccco2)Nc2sc3c(c2C(N)=O)CCCC3)cc1 (centres undefined)	92	15	105	-2.5	i	1.1	-10
71	O=C(NC1CCCCCC1)c1ccc[nH]c1=S	97	20	84	/	i	0.94	1
72	CC(=O)Nc1ccc(S(=O)(=O)NC2(C(F)(F)F)C(=O)Nc3c2c(=O)[nH]c(=O)n3Cc2cccnc2)cc1 (centres undefined)	108	/	/	/	i	1	-4
73	CC(=O)Nc1nc2ccccc2n1CCOc1ccccc1Cl	108	-200	16	-1.3	i	0.99	-9
74	O=C(NCc1ccccc1Cl)c1cccc(NC(=O)c2ccccc2)c1	108	/	/	1.1	i	1.1	3
75	Nc1cc(Cl)ccc1C(=O)OCC(=O)N1CCOCC1	105	/	/	/	i	1.1	/
76	COc1ccc(F)cc1S(=O)(=O)Nc1ccc2c(c1)OCO2	103	-34	59	1.3	i	1.2	2
77	COc1cccc(NC(=O)N2CCN(c3cccc(C)c3)C(C)C2)c1 (centres undefined)	90	-9	136	-0.8	i	0.96	-3

Down the list, quoted from above.
Nos. 45 to 51 in HSV replic up primary fold, in turn: /, 0.94, 1, 0.96, 0.78, 0.71, 1
